S aureus helic: S. aureus DNA helicase inhibition; purified S. aureus helicase, fluorescence unwinding assay; about half of the hits fall short of the stated cut; inhibition, %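 (tested at about 80 µM)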; 0.05% of 120,000 active; AID 485395;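 active means both duplicates at 50% or more, or one of them with a favoured structure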;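 further: 0% = mean of negative control wells and 100% = mean of positive control wells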
MgrA-DNA mod: S. aureus MgrA-DNA binding modulation; fluorescence polarization; inhibition, %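 (about 10 µg/mL by stock and volumes)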; 0.13% of 84,000 active; AID 602314;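 active means above 50% in either of two replicates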;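 further: 0% = protein plus DNA without compound and 100% = DNA alone without protein; higher means less MgrA bound to DNA so lower polarization; one replicate is shown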
* = called active by the depositor; . = not tested or not shown. A portion of the library, so the mix of outcomes need not match the whole.

SMILES | S aureus helic | MgrA-DNA mod
COc1ccc(CN2CCCC(C(=O)Nc3ccc(OC)c(OCC(C)C)c3)C2)cc1OC (stereo not given) | 17 | .
Cc1csc(C(=O)O)c1Cl | . | -2.9
Cc1onc(-c2ccccc2)c1CNC(=O)Nc1ccc(C(F)(F)F)cc1 | -7 | .
CS(=O)(=O)Cc1ccc(C(=O)Nc2ccccc2C(=O)NC2CC2)cc1 | 18 | .
CCOC(=O)c1c(C)[nH]c(C)c1C(=O)COc1ccc2c(c1)OCO2 | -2 | .
O=C(Cn1cnc2ccccc2c1=O)Nc1ccc(Oc2ccccc2)cc1 | 8 | .
CC1=CC2CC1C1C(=O)N(c3ccc(C(F)(F)F)cc3)C(=O)C21 (stereo not given) | -23 | .
Cc1ccc(-c2cc3c(nn2)-c2ccccc2C3=O)cc1 | 2 | 4.0
Cc1cccc(CSc2nnc(-c3c[nH]c4ccccc34)n2C)c1 | 16 | -1.3
CSC1=NSC2=NC(=O)/C(=C\c3cccs3)C(=N)N12 | 8 | -0.6
CC(C)(C)N(N)C(=S)Nc1cccc(Cl)c1 | 12 | .
N#C/C(=C\Nc1cccc(Cl)c1)c1nc(-c2ccc3c(c2)OCO3)cs1 | -1 | .
O=C(O)CSc1nc2cccnc2s1 | . | -13
CC1=NN(c2ccccc2)C(=O)C1(O)C1C(=O)c2ccccc2C1=O (stereo not given) | 6 | 4.8
c1ccc(CN2CCOC(CNc3nc(-c4cccnc4)nc4ccccc34)C2)cc1 (stereo not given) | -9 | .
Cc1ccccc1Nc1nc(N)nc(CN(C)Cc2ccc(F)cc2)n1 | -6 | .
COc1ccc(C2CC(=O)c3cnc(NCc4ccccc4)nc3C2)cc1 (stereo not given) | 3 | -1.2
Cc1ccc2c(c1)N(C(C)C(=O)NC1CC1)C(=O)CO2 (stereo not given) | 6 | .
c1ccc(-n2nnnc2Oc2cccc3cccnc23)cc1 | 6 | 4.7
COc1ccc(NC(=O)CS(=O)CC(=O)Nc2cc(OC)ccc2OC)cc1 (stereo not given) | 7 | 4.1
CC(=O)N1CCc2c([nH]c3ccccc23)C1C (stereo not given) | -6 | .
Cc1ccc(S(=O)(=O)c2ccc(NN)cc2)cc1 | -6 | 1.1
O=S(=O)(Nc1cccc(Br)c1)c1ccc(Br)s1 | 32 | .
O=C(O)c1sccc1-c1ccccc1 | 17 | .
CC(OC(=O)Cc1n[nH]c(=O)c2ccccc12)C(=O)Nc1ccc(Cl)cn1 (stereo not given) | -3 | .
N=C(N)c1ccc(C(N)=O)cc1 | . | 1.9
O=C(CCOc1ccccc1)NCc1ccccc1 | 5 | .
CC(=O)N1CCN(C(=O)c2ccc(-n3c(C)ccc3C)cc2)CC1 | -9 | .
COc1ccc(O)c(C(=O)c2cnn(-c3ccc(Cl)cc3)c2)c1 | -5 | .
CCc1nc(-c2cc3ccc(C)cc3[nH]c2=O)no1 | 16 | .
O=C(Nc1ccc(Cl)cc1)C1=NS(=O)(=O)c2ccccc2N1 | 6 | .
COc1ccc(COC(=O)C2=C(C)NC(=O)NC2c2cccc(OC)c2OC)cc1 (stereo not given) | . | -0.7
CCC(C)c1ccccc1OCC(O)CN1CCN(Cc2ccc3c(c2)OCO3)CC1 (stereo not given) | -8 | .
CC(=O)N1C(C(=O)O)Cc2c([nH]c3ccccc23)C1C (stereo not given) | . | -2.8
NC(=O)c1oc2ccccc2c1NC(=O)c1cccs1 | 4 | .
CCn1c(C(=O)N2CCC(C(=O)NCc3ccc(C)cc3)CC2)cc2occc21 | 4 | .
CN(Cc1ccccc1)C1CCN(Cc2ccc(Cl)cc2)CC1 | 5 | .
C=CCc1c(C)[nH]n(-c2ccc(C(=O)O)cc2)c1=O | 17 | 5.9
COc1ccc(-c2c(C)oc3ccc(Cl)cc23)cc1 | 3 | -0.7
O=S1(=O)CCN2N=C(C(F)(F)F)SC2=N1 | 14 | .
CN/N=C/c1c(O)ccc2ccccc12 | -16 | .
CC1=CC(C)(C)Nc2ccc(OCC(=O)N3c4ccccc4Sc4ccccc43)cc21 | 11 | 1.4
O=C(NC1CCN(C(=O)Nc2ccccc2C(F)(F)F)CC1)c1ccco1 | 5 | -1.6
Cc1csc(SCc2c(C(=O)Oc3ccc(-n4cnnn4)cc3)oc3ccccc23)n1 | -13 | .
CCOC(=O)N1CCN(CCC(=O)Nc2cccc(Cl)c2C)CC1 | 4 | -2.6
COC(=O)c1cnc(NNC(=O)Cc2ccccc2)nc1C(F)(F)F | 1 | .
OCCOC12CC3CC(CC(C3)C1)C2 | -11 | -1.9
CSc1nnc(CCNC(=O)c2ccc3c(c2)OCO3)n1C | 18 | -0.4
O=C1OC(C2OC(=O)c3ccccc32)c2ccccc21 (stereo not given) | 17 | -1.6
CCOC(=O)c1c(-c2ccccc2)oc2c1cc(OC(=O)c1ccc(Br)cc1)c1ccccc12 | . | -2.0
O=C(Nc1cccc(N2CCCC2=O)c1)c1ccccc1 | -16 | 1.5
CC(=O)c1cc2c3c(c1)C1C=CCC1C(c1ccc(Br)cc1)N3CC1CC=CC21 (stereo not given) | . | 11
COc1ccc2c(C)nc(N=C(NC(C)=O)NC(C)=O)nc2c1 | 13 | .
CCc1cc2c(COC(=O)c3ccc4c(c3)OCCO4)cc(=O)oc2cc1O | 4 | .
CC(C)(C)c1cc(Cc2ccccc2)[nH]n1 | 8 | .
CCc1ccc(OCC(=O)N2CCOCC2)cc1 | 12 | -3.0
COC(=O)c1ccc(/C=N/N2C(C)CCCC2C)cc1 (stereo not given) | -17 | .
CC(NCc1ccccc1)c1cc(Cl)ccc1O (stereo not given) | 12 | -2.2
Cc1ccc(NC(=O)CC2SC3=NCCN3C2=O)cc1 (stereo not given) | 9 | 0.7
O=C(CCN1CCOCC1)Nc1ccc(F)cc1F | . | -1.1
Continuation:
SMILES | S aureus helic | MgrA-DNA mod
CC(C(=O)N1CCN(c2ccccn2)CC1)n1ncn2cccc2c1=O (stereo not given) | 11 | -1.2
CCOC(=O)c1c(CN2CCC(C)CC2)n(C)c2cc(Br)c(OC)cc12 | . | 2.6
CN1CCN(C(=O)c2cc3c(-c4ccc(Cl)cc4)nn(C)c3s2)CC1 | -8 | .
O=C(NCCC1=CCCCC1)c1cc(-c2ccccc2)n[nH]1 | -15 | .
CC(=O)N1C(c2ccccc2)CC(=O)OC1c1ccc2c(c1)OCO2 (stereo not given) | 7 | .
CCC(C)(C)n1nnnc1CN(Cc1ccccc1)Cc1cc2cc(OC)ccc2[nH]c1=O | 5 | -2.5
O=S(=O)(/N=C/c1c(O)ccc2ccccc12)c1ccccc1 | 6 | 18
Cc1ccc(NC(=O)c2ccc(F)cc2)c(C)c1 | 4 | -0.4
CC(C)c1ccc(NC2(C#N)C(=O)Nc3ccccc32)cc1 (stereo not given) | -2 | -0.2
CC(CN1CCN(Cc2ccccc2)CC1)OC(=O)c1cccs1 (stereo not given) | 17 | .
C=CCN1C(=O)/C(=C\c2cccs2)S/C1=N/c1nnc(C)s1 | . | -1.0
CCCN1CCC(NCc2ccc(Br)cc2)CC1 | 0 | -2.4
Cc1ccc2c(c1)-c1onc(C(=O)N3CCCCC3c3cccnc3)c1CO2 (stereo not given) | -27 | .
O=C(O)CSCc1ccc(Cl)c(Cl)c1 | -13 | .
O=C(ON1C(=O)CCC1=O)c1ccccc1 | 6 | 12
CC(C)(C)c1c(C#N)sc2sc(C#N)c(N)c12 | . | -2.5
O=C(Nc1ccc(N2C(=O)CCC2=O)cc1Cl)C1CCCCC1 | 19 | 0.6
CC(C)=C1C(=O)Nc2ccc(S(=O)(=O)N(CC(C)C)CC(C)C)cc21 | 5 | .
O=C(CCCN1C(=O)c2ccccc2C1=O)OCc1nc2ccc(Cl)cc2n1CCO | 0 | .
O=C(O)CNC(=O)c1cccs1 | -3 | -3.3
O=C(Oc1ccccc1)OC1C=CS(=O)(=O)C1 (stereo not given) | 8 | .
Cc1cnc(C(=O)Nc2nc3ccccc3[nH]2)cn1 | 3 | .
Clc1ccc(Oc2cnns2)c2ccccc12 | . | -0.8
CC(=O)N1CCc2cc(S(=O)(=O)CCC(=O)O)ccc21 | 15 | .
O=C(Cc1ccc(-n2c(=O)c3ccccc3n(CC(=O)Nc3cc(F)ccc3F)c2=O)cc1)NCC1CCCO1 (stereo not given) | 10 | .
O=C1c2ccccc2-c2onc3c(Cl)cc(NC4CCCCC4)c1c23 | -25 | 4.5
O=c1c(O)c(-c2cccs2)oc2ccccc12 | -95 | .
CCOC(=O)Cn1c(=O)c(C#N)cn(C(C)C)c1=O | . | -1.9
O=C(O)c1nonc1NCn1nnc2ccccc21 | -24 | .
Cc1cc(S(=O)(=O)Cc2ccc(N)cc2)c(C)cc1Cl | . | -1.1
O=C(Nc1ccccc1)C1CCCN(S(=O)(=O)c2ccccc2)C1 (stereo not given) | -7 | -1.7
CN1CCN(S(=O)(=O)c2ccc(-c3cc(C(F)(F)F)on3)s2)CC1 | . | -2.4
Cc1cc(C)nc(SCC(=O)Nc2c(C)n[nH]c2C)n1 | 7 | 3.0
O=C(c1cc(C2CC2)nn1-c1ccccc1)N1CCN(S(=O)(=O)c2ccc(F)cc2)CC1 | -5 | .
COc1cc(OC)cc(-c2nnc(SCC(=O)N=c3sccn3Cc3ccccc3Cl)o2)c1 | 13 | .
CCN(CC)CC(=O)NN1CC(=O)N(c2cccc(Cl)c2)CC1=O | 33 | .
CC1=C(C(=O)OC2CCCCCCC2)C(c2ccccc2Br)NC(=O)N1 (stereo not given) | . | -0.6
CCC(C(=O)Nc1cc(OC)ccc1OC)n1nnc(C(=O)OC)c1C(=O)OC (stereo not given) | 22 | .
CCN(CC)CCCNc1ncnc2c1cnn2-c1ccc(C)cc1 | 5 | .
O=C(NC1CCCCCC1)c1cnc2n(c1=O)CCS2 | 16 | .
CCC(C)NC(=O)Cn1c2ccccc2c2cn[nH]c(=O)c21 (stereo not given) | -11 | .
C=CCN1C(CC(=O)Nc2cccc(Cl)c2)C(=O)NC2CCCCC21 (stereo not given) | 0 | -5.3
CCc1ccc(NC(=O)c2cnn3ccccc23)cc1 | 6 | -1.2
Cc1nc2ccccc2nc1CSc1nc2ccccc2o1 | 8 | .
CCCNCC(=O)Nc1cc(Cl)ccc1Cl | 6 | .
COC(=O)C1=C(C)N=C2SCCC(=O)N2C1c1ccccc1 (stereo not given) | 6 | 2.9
Cc1onc(-c2ccccc2Cl)c1C(=O)NC(=S)N1C(C)CCCC1C (stereo not given) | . | 7.4
OC/C=C/C=C/c1ccc(F)cc1 | 6 | 3.2
C=CCn1c(=S)[nH]c2ccc(Cl)cc2c1=O | -10 | .
C=CCNC(=O)c1scc2c1OCCO2 | 14 | -1.4
COc1ccc2c(c1)cc1n2CCN=C1NCCO | 27 | .
OC1(c2cccs2)CN(c2ccccc2)C2=[N+]1CCCS2 (stereo not given) | 2 | -1.3
CCOC(=O)c1ccc2nc(NC(=O)C(C)C)sc2c1 | -16 | .
Cc1ccc(OC(=O)CCC(=O)Nc2ccc(S(N)(=O)=O)cc2)cc1 | 7 | .
CCCn1c(SCC(=O)C23CC4CC(CC(C4)C2)C3)n[nH]c1=O | 19 | .
CCOc1cc2c(c([N+](=O)[O-])c1)NC(c1ccc(Br)cc1)C1CC=CC21 (stereo not given) | . | 0.1
CSc1cccc(NC(=S)Nc2cccc(SC)c2)c1 | . | 1.6
CN(C(=O)c1ccc2c(Cl)c3c(nc2c1)CCC3)c1ccccc1 | 4 | .
COc1ccc(C2=NNC(=S)C3=CNc4ccccc4N32)cc1 | -3 | 3.2
Cc1[nH]c2ccccc2c1C(=O)C(C)N1CCN(C/C=C/c2ccccc2)CC1 (stereo not given) | 30 | .
Next part.
SMILES | S aureus helic | MgrA-DNA mod
COc1cc(Cl)c(NS(=O)(=O)c2ccc3c(c2)CC(C)N3C(C)=O)c(OC)c1 (stereo not given) | 6 | .
CCc1nn(CC(=O)NC)c(=O)c2cc3occc3n12 | -3 | .
Cn1c(=O)c2ccccc2n2c(CCC(=O)N3CCc4ccccc4C3)nnc12 | -26 | .
Oc1ccc(Cl)cc1C=Nc1cccc2nsnc12 | 7 | 5.8
CCOC(=O)C1CCCN(C/C=C/c2ccccc2)C1 (stereo not given) | 10 | 1.9
CCOc1ccc(NC(=O)CSC2=NCCS2)cc1 | 8 | 0.4
N#C/C(=N\O)S(=O)(=O)c1ccc(Cl)cc1 | . | -3.0
Cc1nc2ncnn2c(C)c1CCC(=O)O | 11 | .

Shown with values under each structure: 18 of the compounds above
Values in the order: S aureus helic	MgrA-DNA mod
- OC/C=C/C=C/c1ccc(F)cc1
    6	3.2
- C=CCn1c(=S)[nH]c2ccc(Cl)cc2c1=O
    -10	.
- C=CCNC(=O)c1scc2c1OCCO2
    14	-1.4
- COc1ccc2c(c1)cc1n2CCN=C1NCCO
    27	.
- OC1(c2cccs2)CN(c2ccccc2)C2=[N+]1CCCS2 (stereo not given)
    2	-1.3
- CCOC(=O)c1ccc2nc(NC(=O)C(C)C)sc2c1
    -16	.
- Cc1ccc(OC(=O)CCC(=O)Nc2ccc(S(N)(=O)=O)cc2)cc1
    7	.
- CCCn1c(SCC(=O)C23CC4CC(CC(C4)C2)C3)n[nH]c1=O
    19	.
- CCOc1cc2c(c([N+](=O)[O-])c1)NC(c1ccc(Br)cc1)C1CC=CC21 (stereo not given)
    .	0.1
- CSc1cccc(NC(=S)Nc2cccc(SC)c2)c1
    .	1.6
- CN(C(=O)c1ccc2c(Cl)c3c(nc2c1)CCC3)c1ccccc1
    4	.
- COc1ccc(C2=NNC(=S)C3=CNc4ccccc4N32)cc1
    -3	3.2
- Cc1[nH]c2ccccc2c1C(=O)C(C)N1CCN(C/C=C/c2ccccc2)CC1 (stereo not given)
    30	.
- COc1cc(Cl)c(NS(=O)(=O)c2ccc3c(c2)CC(C)N3C(C)=O)c(OC)c1 (stereo not given)
    6	.
- CCc1nn(CC(=O)NC)c(=O)c2cc3occc3n12
    -3	.
- Cn1c(=O)c2ccccc2n2c(CCC(=O)N3CCc4ccccc4C3)nnc12
    -26	.
- Oc1ccc(Cl)cc1C=Nc1cccc2nsnc12
    7	5.8
- CCOC(=O)C1CCCN(C/C=C/c2ccccc2)C1 (stereo not given)
    10	1.9

High-throughput results (PubChem)
